Screening data from PubChem.
CDC25B CDK2 inh: primary biochemical HTRF screen for blockers of M-phase inducer phosphatase 2 binding to CDK2/cyclin A | HTRF CDC25B-CDK2/CyclinA binding, anti-His/anti-Flag; active compounds read high | actives 0.72% (n = 94,000) | P30305+P24941 | AID 1259370, 2018 | z-score (no concentration beside the values);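 further: score is relative to mean and SD of negative controls; strong numbers were not always called active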
TAR Tat displ: TAR RNA-Tat peptide displacers, HIV-1, primary screen, biochemical, FRET, FAM/TAMRA-labeled Tat | HIV-1 TAR RNA, Tat peptide displacement FRET; active compounds read high | z-score (concentration not given with the values) | actives 0.6% (n = 100,000) | AID 1259389, 2018;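 further: score is relative to mean and SD of negative controls; some compounds called inactive have numbers as strong as hits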
* = called active by the depositor; x = no result given.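 How the source made its calls: active means z-score from 3 up in half or more of its runs; inactive means the rest.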

SMILES	CDC25B CDK2 inh	TAR Tat displ
COc1ccccc1N1C(=O)c2cccc3c(Cl)ccc(c23)C1=O	-6.6	1.3
COCCCNC(=O)Cn1cnc2sc(C)cc2c1=O	x	2.8
O=C(COc1ccc(Br)cc1)N(Cc1cccs1)c1ccc(F)cc1	-0.34	-0.83
C=C(C)Cn1c(C2CC(=O)N(c3ccccc3Cl)C2)nc2ccccc21 (configuration not stated)	-1	3.1
Oc1c(Cl)cc(Cl)cc1C=Nc1ccc2nc[nH]c2c1	0.01	x
Cc1ccc2[nH]c(=O)cc(C(=O)OCC(=O)c3ccc(Br)cc3)c2c1	-1.5	0.99
O=C(CCc1nc(-c2ccccn2)no1)Nc1ccccc1	-1	0.32
CCc1nc(-c2csc(S(=O)(=O)Nc3cccc4c3CCCC4)c2)no1	x	-0.02
CC1CCN(S(=O)(=O)c2ccc3c(c2)CCN3C(=O)Nc2ccc(Br)cc2F)CC1	-0.4	1.8
COc1ccc(OC)c(-n2c(-c3ccc(Cl)cc3)cn3c4c(=O)n(C)c(=O)n(C)c4nc23)c1	-1.4	-1
N#Cc1cnn(-c2ccc(F)cc2)c1NC(=O)C1CCCCC1	-2.3	x
COCCNC(=O)c1cc2n(n1)C(C(F)(F)F)CC(c1ccco1)N2 (configuration not stated)	-0.24	3.7
CCOC(=O)C(OC(=O)Nc1ccccc1)C(OC(=O)Nc1ccccc1)C(=O)OCC (configuration not stated)	-0.49	x
CCN(CC)S(=O)(=O)c1ccc2c(c1)CC(C(=O)NCc1ccc3c(c1)OCO3)N2C(C)=O (configuration not stated)	x	2.4
COc1cccc(Nc2c3c(nc4nncn24)CCC3)c1	-1.7	0.39
C=CCn1c(N)cc(=O)nc1SC(C)C(=O)Nc1ccccc1 (configuration not stated)	0.61	1.4
O=C(Nc1cnc2ccccc2c1)c1ccco1	x	0.67
CCS(=O)(=O)c1nc(S(=O)(=O)c2ccc(C)cc2)c(NC)s1	-0.74	0.55
Cc1nc2ncnn2c(C)c1CCC(=O)NC(C)C12CC3CC(CC(C3)C1)C2 (configuration not stated)	1.3	x
Cc1ccc(Nc2c(-c3ccc(N(C)C)cc3)nc3nc[nH]n23)cc1	-0.66	-0.02

Fetched one by one from the entries so far, 4 records:
SMILES	CDC25B CDK2 inh	TAR Tat displ
O=C(CCc1nc(-c2ccccn2)no1)Nc1ccccc1	-1	0.32
CCS(=O)(=O)c1nc(S(=O)(=O)c2ccc(C)cc2)c(NC)s1	-0.74	0.55
COCCNC(=O)c1cc2n(n1)C(C(F)(F)F)CC(c1ccco1)N2 (configuration not stated)	-0.24	3.7
Cc1ccc2[nH]c(=O)cc(C(=O)OCC(=O)c3ccc(Br)cc3)c2c1	-1.5	0.99

Full records, looked up by structure.
Cc1ccc2[nH]c(=O)cc(C(=O)OCC(=O)c3ccc(Br)cc3)c2c1 is listed with CDC25B CDK2 inh = -1.5; TAR Tat displ = 0.99
O=C(CCc1nc(-c2ccccn2)no1)Nc1ccccc1 is listed with CDC25B CDK2 inh = -1; TAR Tat displ = 0.32

Next part:
SMILES	CDC25B CDK2 inh	TAR Tat displ
Nc1sc2c(c1C(=O)N1CCCCC1)CCCC2	-2.4	-7.3
CCOCCCNC(=O)c1c(NC(=O)c2snnc2C)sc2c1CCCC2	-0.38	-0.15
COc1cc(/C=N/NC(=O)C(C)Sc2ccc(Cl)cc2)cc(Br)c1O (configuration not stated)	-2.2	x
CCn1cc(S(=O)(=O)c2ccc(OC)cc2)c(=O)c2cc(OC)ccc21	1.2	1.3
O=C(CCSc1nc(-c2ccco2)cc(C(F)(F)F)n1)NCc1cccnc1	2.1	0.8
CC(O)c1nc2ccccc2n1CCOc1ccc(Cl)cc1 (configuration not stated)	-3	1.9
C=CCNc1ncnc2c1c(-c1ccccc1)cn2-c1cccc(C(F)(F)F)c1	-1.9	x
O=C(c1cc2nc(-c3cccs3)cc(C(F)(F)F)n2n1)N1CCCC1	0.13	0.31
Cc1occc1-c1nnc2sc(-c3ccc(-c4ccc(Cl)cc4)o3)nn12	0	0.41
Cc1cc(C)cc(NS(=O)(=O)c2c(C)nc3sc4cc(C)ccc4n3c2=O)c1	x	0.99
CCCCC12CN3CC(C)(CN(C1)C3c1ccc(O)c(OC)c1)C2=O (configuration not stated)	-2.7	1.6
O=c1c(S(=O)(=O)c2cc(F)cc(F)c2)c[nH]c2c(F)cccc12	-0.59	1
O=[N+]([O-])c1c(Sc2cccs2)ncnc1Sc1cccs1	-1.4	x
CCOC(=O)COc1ccc2oc(C)c(C(=O)OCC)c2c1	-1.2	x
O=C(NCC1CCCO1)c1cnn(-c2ccc(F)cc2)c1-n1cccc1 (configuration not stated)	x	1.9
O=C(Nc1ccc2sc(NC(=O)C3CCCCC3)nc2c1)c1cccs1	x	0.34
CCOc1cc(C2NC(C(=O)O)CS2)ccc1OCc1ccccc1F (configuration not stated)	-0.18	-0.11
O=C(c1cnn2ccccc12)N1CCN(c2ccc(F)cc2)CC1	0.4	x
COc1ccc(-c2noc(-c3ccncc3)n2)cc1OC	0.21	-0.57
CCC(C)NC1=C(C(=O)N2CCOCC2)S(=O)(=O)c2ccccc21 (configuration not stated)	x	1.1
Cc1cc(C)cc(Nc2c(-c3cccc(O)c3)nc3ncccn23)c1	-3.9	1.9
Cc1nc2scc(C)n2c(=O)c1S(=O)(=O)Nc1ccc(F)c(Cl)c1	-1.7	0.76
Cc1ccccc1C1C(=O)N(C2CCCCC2)CC(=O)N1C1CCCCC1 (configuration not stated)	-1.7	x
NC(=O)CSc1nnc(CSc2ncccn2)n1-c1ccc(F)cc1	-1.8	1.7
Clc1ccccc1N1CCN(c2ncnc3c2cnn3-c2ccccc2)CC1	x	1.8
CCCOc1ccc(Oc2nc(N(C)C)nc(N3CCCC3)n2)nn1	-0.14	-0.12
O=C(CSc1ccc2nnc(-c3ccc(F)cc3)n2n1)N1CCCCCC1	-1.4	x
N#Cc1c(-c2cccs2)nc(Nc2ccccc2)[nH]c1=O	-1	x
CCOC(=O)c1c(C)oc2ncnc(NCc3ccco3)c12	x	0.07
COC(=O)C(C)NC(=O)N1CCN(c2nnc(C)c3c(C)n(-c4ccc(Cl)cc4)nc23)CC1 (configuration not stated)	x	-0.56
O=C(CCc1nc(-c2ccc(Cl)cc2)no1)NCC1CCCO1 (configuration not stated)	1.3	0.82
Cc1ccc(-c2nnc(N3CCOCC3)c3ccccc23)cc1S(=O)(=O)NCc1cccnc1	-2.2	x
O=C(c1sc(N2CCOCC2)nc1-c1ccccc1)c1c[nH]c2ccccc12	-1.9	0.14
CCC(C)(C)NC(=O)C1CCC(CNS(=O)(=O)c2ccc3c(c2)CC(C)N3C(C)=O)CC1 (configuration not stated)	x	-1.1
Cc1nc2cc(-c3ccccc3)nn2c(C)c1CCC(=O)NC(C)c1ccc2c(c1)OCCO2 (configuration not stated)	0.7	x
COc1ccc(OC)c(NC(=O)Nc2cccc(C(F)(F)F)c2)c1	-0.25	x
COC(=O)C1=C(C)NC(=O)N(C(C)=O)C1c1ccc2c(c1)OCO2 (configuration not stated)	-2	x
CS(=O)(=O)Nc1ccc(C2=NN(C(=O)c3cccc(Cl)c3)C(c3ccco3)C2)cc1 (configuration not stated)	-2.7	x
Cc1ccc2ncnc(Nc3ccc(C)c(C)c3)c2c1	-1.8	x
O=C(O)c1ccc(-c2ccc(Br)cc2)cc1	-0.2	1.4

Two entries from above, with bars between the fields.
Structure | CDC25B CDK2 inh | TAR Tat displ
COC(=O)C1=C(C)NC(=O)N(C(C)=O)C1c1ccc2c(c1)OCO2 (configuration not stated) | -2 | x
NC(=O)CSc1nnc(CSc2ncccn2)n1-c1ccc(F)cc1 | -1.8 | 1.7

Following part
SMILES	CDC25B CDK2 inh	TAR Tat displ
Cc1ccc(-c2cc(C(=O)N(Cc3cccs3)C3CCS(=O)(=O)C3)no2)cc1 (configuration not stated)	-0.29	0.63
CC1=C(C(=O)N2CCCCCC2)C2(CCC(C)CC2)OC1=O (configuration not stated)	-0.14	x
COc1cc2c(cc1OC)C(C)N(C(=O)c1cc3n(n1)C(C(F)(F)F)CC(c1ccco1)N3)CC2 (configuration not stated)	-0.31	-0.2
COCCNc1ncnc2scc(-c3ccccc3)c12	-0.94	x
Cc1ccc(Nc2nc(N3CCCC3)nc(N)c2[N+](=O)[O-])cc1C	x	0.06
O=C(CCCc1ccccc1)N(c1ccccc1)C1C=CS(=O)(=O)C1 (configuration not stated)	-1.6	1.3
O=S(=O)(CCN(C1CC1)S(=O)(=O)c1ccc(Cl)cc1)N1CCNCC1	x	1
COc1ccc(OCC(=O)Nc2nc(-c3ccc(Br)o3)ns2)cc1	-1.1	-0.13
Cn1c(NCc2ccc3c(c2)OCO3)nc2c1c(=O)n(Cc1ccccc1Cl)c(=O)n2C	-0.69	x
COc1cc(S(=O)(=O)n2cnc(C)c2)ccc1F	-0.2	-6.6
Cc1cc2nc(SCCN3CCCCC3)[nH]c2cc1C	0.77	1.6
CCN(CC)CCCNc1nc2cc(OC)c(OC)cc2c2nc(-c3ccccc3)nn12	-1	1.9
Cn1nnc2c(NCCc3ccccc3)ncnc21	x	2.1
COc1ccc(S(=O)(=O)N2CCCC2c2cccs2)cc1Cl (configuration not stated)	-2.1	1.1
Cc1cc(C)c2c(=O)cc(C(=O)N(Cc3ccccc3)C3CCS(=O)(=O)C3)oc2c1 (configuration not stated)	-0.25	-2.3
CCOC(=O)N1CCN(S(=O)(=O)c2c[nH]c(C(=O)OC)c2)CC1	x	2
Cc1nnc(NC2CC2)c2c1nnn2Cc1ccc(F)cc1	-3.4	-0.48
CN(Cc1ccccc1)C(=O)Cn1nnc2sc(-c3ccccc3)cc2c1=O	0.85	0.97
COc1nc(-c2ccc(Cl)cc2)ccc1-c1noc(C)n1	1.5	1.1
CC(C)(C)C#CC1(C(=O)O)C(C)(C)C1(C)C	0.46	x

Of the compounds above, 2 contain a cyano group.
SMILES	CDC25B CDK2 inh	TAR Tat displ
N#Cc1cnn(-c2ccc(F)cc2)c1NC(=O)C1CCCCC1	-2.3	x
N#Cc1c(-c2cccs2)nc(Nc2ccccc2)[nH]c1=O	-1	x

Remaining list, next part.
SMILES	CDC25B CDK2 inh	TAR Tat displ
CN(C)S(=O)(=O)Oc1ccc(C#N)cc1	-0.39	x
CCn1c(=O)c2cc(C(=O)N3CCN(C(=O)c4ccco4)CC3)sc2c2ccccc21	-0.9	x
CSc1cccc(NC(=O)CN(C)S(=O)(=O)c2cccc3cccnc23)c1	-0.15	-0.02
CCCCCCN1CC(O)=C(c2nc3ccc(C)cc3[nH]2)C1=N	0.45	1.8
CN1C(=O)C(O)(CC(=O)c2cccc(Br)c2)c2ccccc21 (configuration not stated)	0.08	1.2
CCOC(=O)c1sc(N2C(=O)C(O)=C(C(=O)c3ccco3)C2c2ccc(C)cc2)nc1C (configuration not stated)	-0.58	0.23
CN(CC(=O)N1CCCCC1)c1nnc(N2CCCC2=O)s1	-2.9	2.3
Cc1cc(OCc2cc(=O)n3c4c(sc3n2)CCCC4)cc(C)c1Cl	-1.6	-1.2
CC(=O)c1ccc(NS(C)(=O)=O)cc1	-1.1	x
O=c1[nH]c(F)c(Cl)c2c1Oc1ccccc1O2	-2.2	x
CN(c1ccc(F)cc1)S(=O)(=O)N1CCCC(C(=O)NC2CCCCC2)C1 (configuration not stated)	x	1.9
Cc1cc(Cl)ccc1Nc1ncnc2onc(C)c12	x	0.75
CCCCOC(=O)Oc1ccc2c(=O)c(Oc3ccc(C)cc3)coc2c1	-0.38	1.7
Cn1c(=O)c(=O)n(C)c2cc(S(=O)(=O)N3CCN=C3N3CCCC3)ccc21	x	0.28
O=C(Nc1ncc(Cc2ccc(F)cc2)s1)c1ccc(Br)cc1	-0.76	0.01
Cc1cc(NC(=O)c2noc3c2CCc2sccc2-3)no1	x	0.44
CCC(=O)Nc1cc2nc3[nH]c(=O)[nH]c(=O)c3nc2cc1C	1.4	-5.4
O=S(=O)(c1ccc(Cl)cc1)N1CCN(Cc2cccnc2)CC1	-1.3	x
Cc1cccc(C2C(C#N)=C3N=C(N)c4ccccc4N3C3=C2C(=O)CCC3)c1 (configuration not stated)	-1.6	1
Cc1ccc(CSC2NCC(C)N2)cc1C (configuration not stated)	0.7	x
OCc1cc(C(O)CNCCCCCCOCCCCc2ccccc2)ccc1O (configuration not stated)	x	2.9
Cn1c([N+](=O)[O-])cnc1COC(N)=O	x	1.6
COc1ccccc1NC(=O)N1CC=C(c2c[nH]c3ccccc23)CC1	3.1	-8.2
COc1ccc(-c2cc(C(F)(F)F)n3nc(C(N)=O)cc3n2)cc1OC	-1.3	-0.41
CC1CN(CCc2ccccc2)c2nc3c(c(=O)n(CC(=O)O)c(=O)n3C)n2C1 (configuration not stated)	-1.7	-0.15
O=C(O)CCSc1nnc(-c2ccncc2)o1	-0.82	-0.47
Cc1ccccc1CNc1nc(N2CCN(C3CCCCC3)CC2)nc2c1cnn2C	x	1.3
Cc1ccc(Cn2c(/C=C/c3ccco3)nc3ccccc32)cc1	3.6*	-0.25
CC(C)(C)c1ccc(/C=C/C(=O)Nc2ccc3c(c2)OCCO3)cc1	-1.3	x
O=C1c2oc3ccc(F)cc3c(=O)c2C(c2ccc(O)cc2)N1Cc1ccccc1 (configuration not stated)	-1.2	1.3
CC(C)c1cc(C(=O)NCCc2nc3ccccc3[nH]2)nn1C1CCS(=O)(=O)C1 (configuration not stated)	-1	0.8
Nc1ccc(Cl)cc1-c1ncon1	-1.3	x
